Biofilm kill mix: mixtures killing C. albicans biofilm | inhibition, % at 7.6 µM | C. albicans biofilm persisters + clotrimazole, fluorescence viability; primary screen in compound mixtures of four per well | 120,000 tested, 0.02% active;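 active = inhibition above 30.3% in the primary screen of four-compound pools, then above 30% when the compound was retested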;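 also: compounds exposed to preformed 24 h biofilms for 48 h; the number belongs to the whole pool; some results filed as inactive read as strong as hits; inactives centre near 12; 0% = biofilm with clotrimazole alone and 100% = kill control; retested singly at about 60 µM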
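Test system: C. albicans CAF4-2 wild-type biofilms; buffer or medium: RPMI/MOPS medium, pH 7.0; schedule: 24 h biofilm formation, then 48 h compound exposure, 37 °C; detection: Alamar Blue fluorescence; measure: percent inhibition of biofilm viability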
An asterisk follows results filed as active.

SMILES | Biofilm kill mix
CCNC(=O)Nc1ccc(OC)cc1OC | 12
Cc1cc(Br)ccc1NC(=S)Nc1cccc([N+](=O)[O-])c1 | 14
CCOC(=O)/C=C/C(=O)Nc1ccccc1C(=O)NC1CCCCC1 | 17
CC(C)C(NS(=O)(=O)c1cc(C(=O)O)ccc1Cl)C(=O)O (stereo not given) | -7
COC(CNC(=O)c1ccc2nc(-c3cccs3)c(-c3cccs3)nc2c1)OC | 12
OC(CNCc1cccc(Br)c1)c1ccccc1 (stereo not given) | 10
CCCC12CN3CC(CCC)(CN(C1)C3c1ccco1)C2=O (stereo not given) | 13
CC(C)(C)SCCNC(=O)/C=C/c1ccccc1 | 4
CC(C)(C)C(=O)Oc1ccc2cc(-c3ccc4ccccc4n3)c(=O)oc2c1 | 13
CCSc1ccc(-c2cccc([N+](=O)[O-])c2)nn1 | 15
Cc1ccc(S(=O)(=O)Nc2ccc(N(C)C)cc2)cc1 | 12
COc1ccc(-c2nc3ccc([N+](=O)[O-])cc3[nH]2)cc1 | 11
O=C(c1nnc(Cc2ccc(Cl)cc2)o1)N1CCc2ccccc2C1 | 8
O=C(NCCCn1ccnc1)C(=O)c1c[nH]c2ccccc12 | 0
Cc1ccnc2nc(C(=O)OCC(=O)NCCc3ccc(Cl)cc3)nn12 | 17
C#CC(C)OC(=O)C(C)NC(=O)c1ccccc1 (stereo not given) | 16
COc1ccc(C2(C(=O)Nc3ccc(S(=O)(=O)Nc4nc(C)cc(C)n4)cc3)CCCC2)cc1OC | 21
Cc1ccc2cc(S(=O)(=O)NCCCN3CCOCC3)ccc2c1 | 4
COC(=O)c1cn(NC(=O)COc2ccc(Cl)cc2)c(=O)c2ccccc12 | 11
Nc1nc(CN2CCN(C(=O)c3ccco3)CC2)nc(Nc2cccc(Cl)c2)n1 | 23
COCCNC(=O)C(c1ccc(C)cc1)N(C(=O)C(=O)NC1CCCC1)c1ccc2c(c1)OCCO2 (stereo not given) | 18
N#C/C(=C(/O)COC(=O)c1ccc(C#N)cc1)c1nc2ccccc2s1 | 21
O=C(Nc1c(Cl)ccc2nsnc12)c1ccco1 | 3
COc1ccc(/C=N/NC(=O)CNc2c(Br)cc(C)cc2Br)c(C(=O)O)c1OC | -6
COc1ccc(NC2=C(C(C)=O)C(c3ccc(N(C)C)cc3)C(C(C)=O)C(C)(O)C2)cc1 (stereo not given) | 5
O=C1CCCC2=C1Sc1ccc(Cl)cc1N2 | 19
CCOC(=O)N1CCN(Cc2c(NC(=O)c3ccco3)sc(C)c2C)CC1 | 16
CCn1c(=O)c2c(nc3n2CCN3c2ccccc2)n(C)c1=O | 17
O=c1c2ccccc2[nH]c(=S)n1CCN1CCCC1 | 18
O=C(O)c1ccc(N2C(=O)CSC2c2cccc([N+](=O)[O-])c2)cc1 (stereo not given) | 16

Some of the entries above in a different format.
COc1ccc(/C=N/NC(=O)CNc2c(Br)cc(C)cc2Br)c(C(=O)O)c1OC
- Biofilm kill mix: -6
COc1ccc(NC2=C(C(C)=O)C(c3ccc(N(C)C)cc3)C(C(C)=O)C(C)(O)C2)cc1 (stereo not given)
- Biofilm kill mix: 5
O=C1CCCC2=C1Sc1ccc(Cl)cc1N2
- Biofilm kill mix: 19

New compounds follow:
SMILES | Biofilm kill mix
CC(C)OC(=O)CC1C(=O)NCCN1C(=S)NC(=O)c1cccs1 (stereo not given) | 3
CCOc1ccc(NC(=S)Nc2cc(OC)c(Cl)cc2OC)cc1 | 14
CCc1ccc(OCC(=O)N2c3ccccc3CCc3ccccc32)cc1 | 14
COc1cccc(CN(C)CC(=O)Nc2ccccc2C(=O)Nc2ccccc2)c1 | 5
CCOc1ccccc1NC(=S)N1CCC(NC(=O)c2ccco2)CC1 | 14
CC(NCC1COc2ccccc2O1)C(=O)NCc1ccccc1 (stereo not given) | 10
Cc1cccc2nc(-c3ccco3)c(Nc3ccc4c(c3)OCCO4)n12 | 14
O=C(CSc1nncn1-c1ccccn1)Nc1cccc(Cl)c1 | 5
CCOc1cc(/C=C(\CC(=O)O)c2nc3ccccc3s2)ccc1OC | 15
O=C(Nc1ccccc1Oc1ccccc1)c1ccccc1F | 16
CCn1c(O)c(N=NC(=O)CNc2ccc(C)cc2)c2ccccc21 | 6
O=[N+]([O-])c1cccc(-n2nnnc2CN2CCCC2)c1 | 14
O=C(COc1ccccc1Br)NC1CCCC1 | 12
CC(Cn1cnc2ccccc21)C(=O)O (stereo not given) | 8
O=C(O)c1cccc(NC2=C(Cl)C(=O)c3ccccc3C2=O)c1 | 21
Cc1ccc(/C=C/C(=O)NCc2ccccn2)o1 | 8
Cc1ccc(S(=O)(=O)N2CC=C(c3ccc(F)cc3)CC2)cc1 | 21
Cc1nn(C)cc1CN(C)Cc1ccc(OCC(O)CN2CCCCC2)cc1 (stereo not given) | 8
Cc1ccc(SCC(=O)NN2C(=O)c3ccccc3C2=O)cc1 | 16
COc1ccc(/C=N/Nc2ccccn2)c(OC)c1OC | 5
Cc1ccc(S(=O)(=O)NNC(=O)c2ccoc2C)cc1 | 23
CC(C)(C)OC(=O)NC(CC(=O)OCc1ccccc1)C(=O)O (stereo not given) | 9
O=C(c1ccc(F)cc1)[C@@H]1[C@@H](C(=O)c2ccccc2)[C@@]2(C(=O)Nc3ccccc32)[C@H]2c3ccccc3C=CN12 | 10
CCOC(=O)C1=C(CN2CCN(C(=O)OCC)CC2)NC(=O)NC1c1ccc2c(c1)OCO2 (stereo not given) | 15
O=C(Nc1ccc(C(=O)O)cc1)/C(=C/c1ccc2c(c1)OCO2)NC(=O)c1cccc(Br)c1 | 17
Cc1cc(C)c2nc(-c3cccnc3)cc(C(=O)Nc3ccc(S(=O)(=O)Nc4onc(C)c4C)cc3)c2c1 | 20
NS(=O)(=O)c1ccc(NC(=O)c2c(F)cccc2Cl)cc1 | 22
Cc1ccc(/C(=C\CN2CCCC2)c2ccccn2)cc1 | 26
CC(=O)N1CCc2cc(Br)cc(S(=O)(=O)N3CCc4ccccc43)c21 | 5
CC1(C)CC(N2CCCC2)=CC(=[N+]2CCCC2)C1 | 19
CC(C)C(C)NC(=O)CN1C(=O)NC2(CCCc3ccccc32)C1=O (stereo not given) | 11
CC(C)NC(=O)CC1C(=O)NCCN1CC(c1ccccc1)c1ccccc1 (stereo not given) | -9
CCC1(CC)NC(=O)N(CC(=O)Nc2ccc(S(=O)(=O)N3CCOCC3)cc2)C1=O | 8
CCN1CCN(c2nc(S(=O)(=O)c3ccc(C)cc3)c(Cl)s2)CC1 | 25
CCOC(=O)c1ccc(N/N=C/c2cc(Br)cc([N+](=O)[O-])c2O)cc1 | 15
CC(C)(C)C1CCc2c(sc(NC(=O)C3CC=CCC3C(=O)O)c2C#N)C1 (stereo not given) | 14
N#CCn1c2ccccc2c2nc3ccccc3nc21 | 17
Cc1ccc(-c2nnn(CCC(=O)NC(C)(C)C)n2)cc1 | 7
COc1cc(CNCCSc2nnnn2C)cc(Br)c1OCc1ccccc1 | 16
CCOC(=O)C(C(C)=O)c1c(Br)c(O)c(O)c2c(C(=O)c3ccc(C)cc3)coc12 (stereo not given) | 17

Entries from the list above that have an aryl methoxy group:
SMILES | Biofilm kill mix
CCNC(=O)Nc1ccc(OC)cc1OC | 12
COc1ccc(-c2nc3ccc([N+](=O)[O-])cc3[nH]2)cc1 | 11
COc1ccc(C2(C(=O)Nc3ccc(S(=O)(=O)Nc4nc(C)cc(C)n4)cc3)CCCC2)cc1OC | 21
COc1ccc(/C=N/NC(=O)CNc2c(Br)cc(C)cc2Br)c(C(=O)O)c1OC | -6
COc1ccc(NC2=C(C(C)=O)C(c3ccc(N(C)C)cc3)C(C(C)=O)C(C)(O)C2)cc1 (stereo not given) | 5
CCOc1ccc(NC(=S)Nc2cc(OC)c(Cl)cc2OC)cc1 | 14
COc1cccc(CN(C)CC(=O)Nc2ccccc2C(=O)Nc2ccccc2)c1 | 5
CCOc1cc(/C=C(\CC(=O)O)c2nc3ccccc3s2)ccc1OC | 15
COc1ccc(/C=N/Nc2ccccn2)c(OC)c1OC | 5
COc1cc(CNCCSc2nnnn2C)cc(Br)c1OCc1ccccc1 | 16

More results follow.
SMILES | Biofilm kill mix
O=S(=O)(CCSc1ccc(C(F)(F)F)cn1)c1ccc(Cl)cc1 | 10
CC(CCn1cccn1)NC(=O)c1cc(COc2ccc(F)cc2F)on1 (stereo not given) | 1
CN(C)C(=O)c1c2c(nc3ccccc13)CCCC2 | 24
O=C(O)CSc1nnc(COc2cccc3cccnc23)n1-c1ccc(Cl)cc1 | 17
COc1ccc(C(=O)NCc2nnc(SC)n2Cc2ccccc2)cc1 | 21
Nc1c([N+](=O)[O-])cc(-c2cnc[nH]2)cc1[N+](=O)[O-] | 14
COc1ccc(/C=C/C(=O)Nc2ccccc2)cc1S(=O)(=O)N1CCOCC1 | 24
COc1ccc(-c2[nH]ncc2CN(Cc2nccn2C)C(C)C)c(F)c1 | 6
N#CCSc1nnc(-c2ccc3c(c2)OCO3)o1 | 14
CCOc1ccc(Nc2nc(N)nc(CN(C)C3CCCCC3)n2)cc1 | 18
CCOC(=O)/C(C#N)=C/c1c(OCC)n(CC)c2ccccc12 | 17
COc1cc(/C=N/NC(=O)C[n+]2ccccc2)cc(OC)c1OC(C)=O | 20
COc1ccc2nc(Nc3nc(CSc4nc5ccccc5[nH]4)cc(=O)[nH]3)nc(C)c2c1 | 13
CNC(=O)NC(=O)C(C)OC(=O)CCCSc1nc2ccccc2s1 (stereo not given) | 4
CCOC(=O)/C(C#N)=C/c1cn(CCC(=O)O)nc1-c1ccc(F)cc1 | 18
Cc1ccc(NC(=S)N(Cc2ccc(Cl)cc2)Cc2ccc(C(=O)O)cc2)cc1Cl | 2
Cc1cc(C)n2cc(CSc3ccc(Cl)cc3)nc2n1 | 25
CC(C)(C)c1n[nH]c2c1CCCC2 | 10
C=CCN1C(=O)CS/C1=N\S(=O)(=O)c1ccc(Cl)cc1 | -2
COc1ccc(N(C(=O)c2ccc(Br)o2)C2C=CS(=O)(=O)C2)c(OC)c1 (stereo not given) | 18
O=C1NC(=Nc2ccccc2)S/C1=C\c1cccnc1 | 19
CC(=O)Nc1ccc(SC[C@H](c2ccccc2)N2CCN(CCc3ccccc3)CCC2=O)cc1 | 18
CCN1CCN(Cc2ccc(NC(=O)c3ccc(C)c(NC(=O)c4nccn4C)c3)cc2C(F)(F)F)CC1 | 18
CCN(CC)CC(=O)Nc1sc2c(c1C(=O)c1ccccc1C)CCC2 | 6
Cc1ccc(C)c(S(=O)(=O)N2CCCOC2CNC(=O)C(=O)NCc2cccnc2)c1 (stereo not given) | 7
Cc1ccc(CNC(=O)CCC2CCCN(C(=O)CCC(F)(F)F)C2)o1 (stereo not given) | 6
O=C(COC(=O)/C=C/c1ccco1)NCc1ccccc1 | -1
O=C(Nc1ccccn1)c1ccc2c(c1)OCCO2 | 2
CCc1nnc(NC(=O)c2n[nH]c(=O)c3ccccc23)s1 | 7
CCN(Cc1ccccc1)C(=O)c1ccc(CNS(=O)(=O)c2ccc(C)cc2)cc1 | 13
O=C(CSc1ncccn1)NC(=O)c1ccccc1 | 20
O=C(Nc1nnc(-c2ccc(F)cc2)o1)c1cccc([N+](=O)[O-])c1 | 21
CCOc1ccc(Cn2cc(F)c(=O)[nH]c2=O)cc1 | 30
O=C(CC1C(=O)NCCN1Cc1ccoc1)NCc1cccc(OC(F)(F)F)c1 (stereo not given) | 22
C/C(N=Nc1nc2ccccc2s1)=N\Nc1ccccc1O | 9
O=C1Nc2ccccc2C1=Nc1ccc(S(=O)(=O)Nc2nccs2)cc1 | 12
O=C(NNc1ncccc1-n1cccc1)c1ccc(Cl)cc1 | 17
CCc1cc2ccc(C)cc2nc1SCC(=O)Nc1cc(OC)c(OC)cc1C(=O)O | 19
COc1cc(CCC(=O)Oc2ccc(C(C)=O)cc2)cc(OC)c1OC | -1
CC(C)c1ccc(C2=C(O)c3ccccc3C(=O)C2=O)cc1 | 6
COc1cc(NC(=O)CN2C(=O)C(c3ccccc3)=NC23CCCCCC3)cc(OC)c1 | 2
Cc1ncsc1C(=O)O | 1
O=C1NC[C@@H](Cc2cccc3ccccc23)N(CC2(c3ccccc3)CC2)C1=O | 3
CC1CCN(c2nc3nonc3nc2N2CCC(C)CC2)CC1 | -2
COCc1cc(C)nc(SCC[N+](C)(C)CC(=O)Nc2ccccc2)c1C#N | 3
CCOC(=O)N1CCN(C(=O)/C(=C\c2cccs2)NC(=O)c2cccs2)CC1 | 4
Cc1nnc(SCC(=O)N2CCN(S(=O)(=O)c3ccccc3)CC2)s1 | 9
Cc1ccc(-c2cn3cccnc3n2)cc1NC(=O)c1cccs1 | 8
CCOC(=O)N1CCC(N(CCN(C)C)C(=S)Nc2ccccc2Cl)CC1 | 15
CN(CCN1CCOCC1)Cc1nc(-c2ccccc2)no1 | 23
Carrying on.
SMILES | Biofilm kill mix
Cc1c(Cl)ccc2c(C(=O)NCCN3CCCCC3)cc(-c3ccccn3)nc12 | 8
O=S(=O)(c1ccc(Cl)cc1)N1CCN(c2nc(-c3cccs3)nc3ccccc23)CC1 | 12
CC(=O)c1ccc(N2CCN(S(=O)(=O)c3ccccc3)CC2)c(F)c1 | 3
Cc1ccccc1OCC(=O)NCCC1=CCCCC1 | 8
CC(C)NC(=O)CN1CCN(C(=O)CCl)CC1 | 7
CC12CCC(C/C1=N\OC(=O)c1c(F)cccc1F)C2(C)C (stereo not given) | 14
COc1ccc(-n2c(Cc3cc(=O)[nH]c(=O)[nH]3)nnc2SCC(=O)Nc2cc(C(F)(F)F)ccc2Cl)cc1 | 10
COC(=O)c1sc2[nH]c(=S)n(N)c(=O)c2c1C | 20
COc1ccc(-c2nn(-c3ccccc3)cc2/C=N/Nc2ccc(Cl)c(C(=O)O)c2)cc1OC | 28
NCCCC[C@H]1CN=C(N)N1CCC12CC3CC(CC(C3)C1)C2 | 18
Cc1ccc(N(CC(O)CN2C(=O)NC(C)(C)C2=O)S(=O)(=O)c2ccc(C)cc2)cc1 (stereo not given) | 10
CSc1nc2ccc(NS(=O)(=O)c3ccc(Br)s3)cc2s1 | 25
CCC/C(O)=C1\C(=O)CC(C)(C)CC1=Nc1ccccc1O | 13
Cc1ccc(NC(=O)CSc2n[nH]c(=O)n2C2CC2)cc1S(=O)(=O)N1CCOCC1 | 9

Screening data (PubChem)

Some of the compounds tested (hit frequency here may not be typical).
